Screens: PubChem BioAssay, several laboratories
YopH inh: blocks Yersinia enterocolitica YopH tyrosine phosphatase. AID 898. inhibition, %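 (about 10 µM by stock and volumes)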. fluorescence Ex485/Em525. hit rate 0.16% among 140,000;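 active means inhibition of 50% or more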;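 further: controls were vehicle for no effect and minimum signal wells for full effect; inactives centre near -20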
Arbovirus anti: arbovirus infection inhibition; inhibition, % at 10 µM; hit rate 0.37% among 200,000; AID 1251; arbovirus infection cell-based antiviral screen;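 active means inhibition from about 30%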;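 further: bluetongue infection of BSR cells; cell survival read as ATP light after 72 h; 0% = infected wells without compound and 100% = uninfected wells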
RecA splice inh: inhibitors of M. tuberculosis RecA intein splicing; cell-free RecA intein splicing, fluorescence; inhibition, %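 (about 9 µM by stock and volumes)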; AID 2221; P9WHJ3; hit rate 0.75% among 290,000; in the data active means inhibition above about 30%; inconclusive means no clear call, values can overlap the other calls;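 further: 0% = vehicle wells and 100% = reference inhibitor control wells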
Target sequence (P9WHJ3 whole entry, looked up, canonical isoform): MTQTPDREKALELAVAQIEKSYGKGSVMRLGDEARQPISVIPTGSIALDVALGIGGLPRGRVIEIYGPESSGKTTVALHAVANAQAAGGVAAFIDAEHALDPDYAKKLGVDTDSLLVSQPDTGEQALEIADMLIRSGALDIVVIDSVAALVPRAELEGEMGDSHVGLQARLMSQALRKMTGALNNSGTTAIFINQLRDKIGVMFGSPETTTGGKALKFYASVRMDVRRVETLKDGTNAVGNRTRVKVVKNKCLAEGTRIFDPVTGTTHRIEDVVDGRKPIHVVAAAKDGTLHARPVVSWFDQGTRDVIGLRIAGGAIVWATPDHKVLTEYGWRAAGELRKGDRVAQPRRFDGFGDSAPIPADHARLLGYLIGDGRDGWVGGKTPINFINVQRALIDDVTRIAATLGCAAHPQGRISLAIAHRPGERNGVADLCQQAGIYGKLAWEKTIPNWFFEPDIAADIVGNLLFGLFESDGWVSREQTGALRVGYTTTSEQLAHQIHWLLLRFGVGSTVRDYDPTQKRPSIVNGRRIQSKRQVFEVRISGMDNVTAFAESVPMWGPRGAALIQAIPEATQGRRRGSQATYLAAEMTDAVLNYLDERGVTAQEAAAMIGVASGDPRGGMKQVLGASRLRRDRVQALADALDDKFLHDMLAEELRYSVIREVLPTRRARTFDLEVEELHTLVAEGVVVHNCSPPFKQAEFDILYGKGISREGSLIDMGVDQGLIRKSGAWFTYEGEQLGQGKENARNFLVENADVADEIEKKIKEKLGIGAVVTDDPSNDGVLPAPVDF
Mtb growth: M. tuberculosis H37Rv growth inhibitors, H37Rv strain (AID 1626). M. tuberculosis H37Rv growth inhibition; higher % means a stronger effect. inhibition, % at 10 µM; hits with a dose series show IC50 in µM. hit rate 0.95% among 220,000;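 active means confirmed in a dose series; inconclusive means inhibition above 80% but not taken into the dose series; inactive means below 80% or under 30% at every dose of the series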;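 further: bacteria incubated seven days before Alamar blue readout; 0% = bacteria only wells and 100% = bacteria with antibiotic wells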
Mtb bLac sens: beta-lactam sensitization of Mtb H37Rv; M. tuberculosis H37Rv growth with meropenem, percent inhibition; hits of this screen are not shown here; inhibition, % at 25 µM; hit rate 0.27% among 330,000;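 active means about 74% or more and at least 40 points above the plate without the antibiotic, then above 30% in a dose series; inconclusive means first-round hits that could not be retested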;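 further: growth measured after seven days incubation then overnight dye step; 0% = bacteria only wells and 100% = bacteria with antibiotic; twin plates without the antibiotic show which effects depend on it; some results filed as inactive read as strong as hits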
Arbovirus anti repeat: further read-out of Arbovirus anti, marked with its call; inhibition, %; measured here: 10K subset replicate screen; many hits read low in the repeat;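 first of two repeat runs on a subset; 0% = infected and 100% = uninfected wells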
* marks the source's active call; other numbers are inactive results; u = inconclusive; x = not tested or not shown.

SMILES	YopH inh	Arbovirus anti	RecA splice inh	Mtb growth	Mtb bLac sens	others
COc1ccc(CCC(=O)NCCOc2ccc(Cl)cc2)cc1	x	x	5.2	x	7
COc1cccc(-c2cc(C(F)(F)F)nc(N3CCCCC3)n2)c1	-30	-7	x	-7%	12
COc1ccc(C(F)(F)F)cc1N/C=C/c1nnnn1-c1ccc(C)cc1	x	x	0.3	0%	-2
O=C(CSc1nc2ccccc2o1)N1CCN(S(=O)(=O)c2ccc3ccccc3c2)CC1	-28	16	7.2	-3%	8
Cc1cccc(N(CC(=O)Nc2cccnc2)S(C)(=O)=O)c1	x	x	0.6	x	-1
CC(C)Cn1c(N)c(C(=O)COC(=O)c2ccc3c(c2)OCCO3)c(=O)n(C)c1=O	-70	8	x	-6%	-1
CCOC(=O)c1c(C)[nH]c(C(=O)OCC(=O)N(CC(C)C)c2c(N)n(Cc3ccccc3)c(=O)[nH]c2=O)c1C	x	x	0.1	x	-7
COc1ccccc1NCc1cc(=O)oc2c(C)c(O)ccc12	x	x	-6.4	x	3
Cc1cc(C)cc(C(=O)Nc2ccc(NC(=O)c3cccs3)cc2)c1	x	x	-5.3	x	4
CN1CCN(C(=O)CCn2c(=O)c3cccn3c3cccnc32)CC1	x	x	0.6	x	1
CC(=O)c1c(C)n(CC(=O)NCc2ccc3c(c2)OCO3)c2ccccc12	-4	8	-0.6	-6%	5
Cn1c(SCC(=O)c2ccccc2)nnc1-c1ccc(O)cc1	-25	5	-1.0	-5%	6
O=[N+]([O-])c1ccc(Cl)c(/C=N/n2c(COc3ccccc3)n[nH]c2=S)c1	-12	2	1.6	2%	-1
Cc1ccc(C)c(NC(=O)C(=O)NCC2CCCN2S(=O)(=O)c2cccs2)c1 (stereo unspecified)	x	x	-2.7	x	2
Cc1ccc(OCCCCN2CCc3ccccc3C2)cc1	x	x	0.4	x	-9
CCCC(O)(CCC)C(=O)NN(C(=O)OC)c1ccccc1	-5	-3	x	2%	-5
O=C(c1ccc(Cl)cc1)C1CCN(CC(=O)N2CCCCC2)CC1	x	x	-0.2	x	-8
Fc1cccc(CSc2nc3ccncc3[nH]2)c1	-3	-1	-4.2	7%	-5	Arbovirus anti repeat=2
COc1ccc(N(C(=O)c2ccc(S(=O)(=O)N3CCCC3)cc2)C2C=CS(=O)(=O)C2)cc1 (stereo unspecified)	x	x	-1.6	x	-1
CCOC(=O)C(=CNc1ccccc1N1CCOCC1)C(=O)OCC	x	x	1.3	-2%	9
O=C(C1CC1)N1N=C(c2ccccc2)CC1(O)C(F)(F)C(F)(F)F (stereo unspecified)	x	x	-2.3	x	-1
CCOC(=O)C1(CCc2ccccc2)CCN(Cc2ccn[nH]2)CC1	x	9	2.5	-4%	5
NC(N)=NC(N)=Nc1ccc2ccccc2c1	x	11	1.1	-5%	6
CCOC(=O)n1cc(-c2cnc(CNC(=O)C(C)(c3ccccc3)c3ccccc3)o2)c2ccccc21	4	4	3.5	-2%	2
CCCOc1ccc(C(CC(=O)O)NC(=O)c2ccc3c(c2)OCO3)cc1 (stereo unspecified)	-47	0	-1.5	4%	-6
Cc1cc(C)c[n+](C(C)C(=O)c2ccc(-c3ccccc3)cc2)c1 (stereo unspecified)	-23	5	0.3	-2%	2
Cc1ccc(-c2cnc(SCCNC(=O)c3ccco3)[nH]2)cc1	x	x	-1.2	x	-14
CCCCn1c(SCc2ncc(-c3ccccc3)o2)nc2cc(S(N)(=O)=O)ccc21	-41	2	2.4	u	100
Cc1cccc(-n2ncc3c(N(C)Cc4ccccc4)ncnc32)c1	x	8	3.1	25%	44	Arbovirus anti repeat=3
CCCCN(C)c1ccc([N+](=O)[O-])cc1	-11	-2	-0.8	6%	7
CSc1ccc(CNC(=O)c2c(C)noc2C)s1	x	x	-2.2	-8%	-6
COCc1c(C(=O)N/N=C(/C)c2cccs2)nnn1-c1nonc1N	x	x	0.0	x	-7
Cc1ccc(N2C(=O)C3CC(c4ccccc4)=C4C5C=CC(C6C(=O)N(c7ccc(C)cc7)C(=O)C56)C4C3C2=O)cc1 (stereo unspecified)	-25	33*	-1.2	53%	0
CCOc1ccc(NC(=O)CCC(=O)NNC(=O)COc2ccc(C)cc2Br)cc1	x	x	-2.1	x	97
CCCc1nnc(NC(=O)CS(=O)(=O)c2ccc(C)cc2)s1	x	x	-3.4	x	6
Cc1ccc2nc(N(CCCN(C)C)C(=O)c3ccc(S(=O)(=O)N(C)C)cc3)sc2c1	-30	-16	16	-8%	7
O=C(N/N=C/c1c(O)n(Cc2ccco2)c(=O)[nH]c1=O)c1ccccc1	x	x	4.4	4%	-4
Cc1ccc(C)c(OCC(O)CN2CCCCC2C)c1 (stereo unspecified)	-30	3	-4.0	-5%	-5
CNC(=O)CC(=O)Nc1ccccc1C(=O)O	3	-4	-1.5	-1%	-14
COc1ccc(C(=O)NCCS(=O)(=O)NCc2ccc(F)cc2)cc1	x	x	-1.9	x	-6
CC(=O)N/N=C/c1cc2c(cc1[N+](=O)[O-])OCO2	x	1	-2.0	0%	5
CSc1ncc(Cl)c(C(=O)Nc2nnc(SC/C=C/c3ccccc3)s2)n1	-28	23	-2.4	-7%	17
Cc1cc(O)ccc1-c1cnc2ccccc2n1	-28	-7	0.3	-1%	-11
CC[N+]1=C(C)C(C)(C)c2cc(C)ccc21	x	4	1.0	u	-6
O=C(Nc1ccccc1)N1CCOCC1	8	6	1.7	1%	1
Cc1ccc(N2CCN(C(=O)c3cccc([N+](=O)[O-])c3)CC2)cc1Cl	x	-2	4.9	10%	-5
CCc1ccc2c(CN3CCN(S(=O)(=O)c4ccc5c(c4)OCCO5)CC3)cc(=O)oc2c1	-18	0	-1.3	-1%	-10
O=c1cnc2cc([N+](=O)[O-])ccc2[nH]1	x	-2	-23	-5%	0
COC(=O)NNC(=O)COc1ccc(Cl)cc1	-23	5	-4.0	-1%	-14
CCOC(=O)CN(C)S(=O)(=O)c1ccc(-c2cc(C(=O)OC)sc2C(F)(F)F)cc1	x	x	5.7	7%	-1

(next part)
SMILES	YopH inh	Arbovirus anti	RecA splice inh	Mtb growth	Mtb bLac sens	others
CCOc1ccc(C2C(C#N)=C(N)N(N(C)C)C3=C2C(=O)CCC3)cc1 (stereo unspecified)	x	x	-8.5	x	-3
Cc1ccc(NC2CC(=O)N(c3ccc(N4CCCCC4)cc3)C2=O)cc1 (stereo unspecified)	-18	7	-1.6	-8%	0
CC1=NNC(=O)C1Cc1ccc(F)cc1 (stereo unspecified)	x	x	97*	-2%	-2
CCCc1nnc(NC(=O)CCC(=O)N2CCC3(CC2)OCCO3)s1	x	x	-5.3	-5%	-7
O=C(Nc1cccc(-n2cnnn2)c1)c1ccco1	-36	-2	-1.4	1%	-4
O=C(/C=C/c1ccccc1Cl)NNC(=O)c1cccs1	x	-11	2.2	-3%	2
CCc1ccccc1S(=O)(=O)Cc1ccc(C(=O)N2CCN(c3ccccn3)CC2)o1	-50	-4	x	2%	-3	Arbovirus anti repeat=-4
O=C(CN1C(=O)c2ccccc2S1(=O)=O)NCCC1=CCCCC1	-20	2	1.0	-8%	-2
Cc1ccc(CS(=O)(=O)Cc2ccc(C(=O)NCc3cccnc3)o2)cc1	-40	3	-1.7	-5%	-3
O=C(N/N=C\c1ccc([N+](=O)[O-])o1)C1COc2ccccc2O1 (stereo unspecified)	x	0	-7.2	u	100
COc1ccc(CCNc2nnc(Sc3nnnn3-c3ccccc3)s2)cc1OC	-46	-10	14	-2%	-1
COc1ccc(-c2cc(C(=O)Nc3ccc(F)cc3F)no2)cc1	x	x	1.0	x	5
COc1cccc(NC(=O)COc2cccc3c2CCNC3=O)c1	x	x	-2.4	x	6
Cc1cc(N(CCCl)CCCl)ccc1/C=N/N=C(\N)c1cnccn1	x	x	5.1	x	-3
CC(=O)c1ccc(N2CCN(C(=S)NCCCN(C)C)CC2)cc1	x	4	3.0	0%	-4
O=c1c2cnn(-c3ccccc3Cl)c2ncn1Cc1cccnc1	-2	10	1.9	-4%	0
CS(=O)(=O)c1sc(C(=O)NC(=O)Nc2cccc(C(F)(F)F)c2)c2c1C=CCC2	x	x	0.6	2%	-5
O=C(/C=C/c1ccc2c(c1)OCO2)N1CCN(c2ccc(Cl)cc2)CC1	-21	3	-2.2	0%	0
Cc1cccc(N2CCN(C(=O)CCS(=O)(=O)c3ccc4c(c3)NC(=O)C(C)S4)CC2)c1C (stereo unspecified)	x	x	1.1	x	4
COc1ccc2nc(NC(=O)NC3CCCCC3)sc2c1	x	x	2.8	14%	85

Entries listed so far that have a CF3 group:
SMILES	YopH inh	Arbovirus anti	RecA splice inh	Mtb growth	Mtb bLac sens	others
COc1cccc(-c2cc(C(F)(F)F)nc(N3CCCCC3)n2)c1	-30	-7	x	-7%	12
COc1ccc(C(F)(F)F)cc1N/C=C/c1nnnn1-c1ccc(C)cc1	x	x	0.3	0%	-2
O=C(C1CC1)N1N=C(c2ccccc2)CC1(O)C(F)(F)C(F)(F)F (stereo unspecified)	x	x	-2.3	x	-1
CCOC(=O)CN(C)S(=O)(=O)c1ccc(-c2cc(C(=O)OC)sc2C(F)(F)F)cc1	x	x	5.7	7%	-1
CS(=O)(=O)c1sc(C(=O)NC(=O)Nc2cccc(C(F)(F)F)c2)c2c1C=CCC2	x	x	0.6	2%	-5

(continued)
SMILES	YopH inh	Arbovirus anti	RecA splice inh	Mtb growth	Mtb bLac sens	others
O=C(CCc1nc2ccccc2c(=O)[nH]1)NCc1cccc(Cl)c1	-21	-24	x	5%	86
Cc1ccc(CNC(=O)COc2ccc(S(=O)(=O)NC(C)C)cc2)cc1	-30	8	-0.8	8%	u
Cc1cccc(C)c1Nc1nnc(SCC(=O)c2ccc3c(c2)NC(=O)CO3)s1	-17	6	-6.5	1%	-5
COC(=O)/C(=C\Nc1ccc(Oc2ccc(F)cc2F)nc1)NC(=O)c1ccccc1	x	x	1.4	3%	1
CCOC1=NC(C(=O)O)c2ccccc2/C(=C(/C)Cl)N1 (stereo unspecified)	8	8	0.5	-10%	1	Arbovirus anti repeat=-1
C=CCN1C(=O)C2C(C(=O)NC)C3C=CC2(O3)C1C(=O)NCc1ccc(OC)cc1 (stereo unspecified)	-12	2	2.0	4%	1
Cc1ccc(C(=O)Nc2cccnc2)cc1NC(=O)c1ccco1	-3	8	-0.6	-5%	-3
CNC(=O)/C(C#N)=C/c1c(N2CC(C)OC(C)C2)nc2ccccn2c1=O (stereo unspecified)	-28	3	-348	6%	-6
CNC(=O)Oc1ccc2c(c1)C(=O)c1ccccc1CO2	8	-5	-0.3	-8%	-4
COc1ccc(C(=O)NC(=S)N(C)Cc2ccccc2)cc1Br	x	2	x	3%	7
COc1ccccc1NS(=O)(=O)c1cc(NC(=O)c2[nH]c(C)c(C(C)=O)c2C)ccc1N1CCOCC1	x	x	6.8	48%	72
CCCCNC(=O)c1c(CSc2ccccc2)noc1C(=O)NCc1ccccc1	x	x	-0.6	-6%	9
CC1(C)CC(O)(CNCc2ccc3c(c2)OCO3)CCO1 (stereo unspecified)	-37	-4	-0.5	-3%	0
O=C(CC1Sc2ccccc2NC1=O)Nc1cccc(-c2nnc3n2CCCCC3)c1 (stereo unspecified)	-29	-3	0.8	1%	-4
O=C(CNS(=O)(=O)c1ccccc1)NCc1ccccn1	-19	6	-2.0	-4%	1
Cc1ccc(-n2cnc3scc(-c4cccs4)c3c2=O)cc1	-44	-7	-1.2	18%	-2
CN(C)c1ncc([N+](=O)[O-])cc1C(F)(F)F	x	x	1.2	-11%	-6
COc1cc(/C=C(/C#N)C(=O)NCc2ccccc2)cc(OC)c1OC	x	x	-2.5	x	3
CCCCN1C(=O)NC2NC(=O)NC21 (stereo unspecified)	-103	0	1.7	0%	-10
COc1cc(C(=O)NC(=S)Nc2ccc(Cl)cn2)cc(OC)c1OC	x	x	1.3	x	4
Cc1ccc(N2CC(C(=O)OCc3ccccc3F)CC2=O)cc1 (stereo unspecified)	-9	6	2.1	34%	96
COc1ccc(NC(=S)NNC(=O)OC(C)(C)C)cc1OC	-16	-1	-0.9	0%	-2
CC(C)n1cc(CN2CCCC(C(=O)Nc3cccc(-c4cc5ccccc5[nH]4)c3)C2)cn1 (stereo unspecified)	x	x	4.7	x	33
S=C1NCN(Cc2ccco2)CN1	x	x	-1.0	-13%	12
O=C(CS(=O)(=O)c1ccccc1)Nc1nc(-c2ccc(F)cc2)cs1	x	4	1.6	26%	11
Cc1ccc(C2(C)NC(=O)N(CCOc3ccccc3)C2=O)cc1 (stereo unspecified)	4	5	-0.4	-3%	-8
CCSc1c(C(=O)NC)ccc2c1C(=O)c1ccccc1C2=O	-6	-9	8.7	-5%	6

These rows are one share of the data; the hit share may differ from the screen's.
